LANA-H2A inh: blocks KSHV LANA binding to histone H2A/H2B; inhibition, % (concentration not given with the values); 320,000 tested, 0.6% active; AID 2629; cell-free LANA-H2A/H2B peptide, fluorescence polarization; Q9QR71; in the data active = inhibition mostly above about 10%, no sharp cut-off; inactive = mostly below about 6.7%;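 also: stock transfer was 7.5 nL into about 10 µL; 0% = median of vehicle wells and 100% = median of positive control wells; one replicate is shown; the record names a cut of 25% in any replicate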
UCH37 inh: human UCH37 deubiquitinating enzyme inhibition | Q9Y5K5 | purified proteasome/UCH37, Ub-AMC cleavage fluorescence | inhibition, % (concentration not given with the values) | 330,000 tested, 0.33% active | AID 588478;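 active = mean of two replicates above 20%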;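 also: 0% = compound-free wells with enzyme and 100% = wells lacking proteasome; stock transfer was 100 nL into about 20 µL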
Target sequence (Q9Y5K5 whole entry, looked up): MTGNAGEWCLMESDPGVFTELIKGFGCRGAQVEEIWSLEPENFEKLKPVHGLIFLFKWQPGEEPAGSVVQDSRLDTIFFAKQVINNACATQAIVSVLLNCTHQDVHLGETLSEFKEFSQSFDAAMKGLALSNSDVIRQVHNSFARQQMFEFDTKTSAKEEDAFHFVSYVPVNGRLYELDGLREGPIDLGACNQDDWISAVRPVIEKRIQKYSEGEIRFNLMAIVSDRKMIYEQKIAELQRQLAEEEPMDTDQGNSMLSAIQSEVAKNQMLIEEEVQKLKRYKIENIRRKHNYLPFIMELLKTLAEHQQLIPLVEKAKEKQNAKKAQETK
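system = Proteasome-associated human UCH37 deubiquitinase | amount = 0.15 nM proteasome as dispensed | medium = pH 7.4 Tris-HCl (50 mM) with ovalbumin, ATP-MgCl2, DTT | incubation = 30 min preincubation with enzyme, 25 min cleavage at room temperature | detection = AMC fluorescence 355/460 nm | read-out basis = percent inhibition | controls = no-proteasome and no-compound wells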
Beta cell apopt: beta cell apoptosis inhibition. INS-1E cytokine-induced death, ATP luminescence, 48 h; percent of positive-control rescue, neutral wells zero. protection from apoptosis, % (no concentration beside the values). 300,000 tested, 0.8% active. AID 435005;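 active = all replicates at 75% or more, or half of them and the mean; inconclusive = half reach 75% but not the mean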;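 also: 0% = cytokine-treated negative control wells and 100% = positive control rescue; higher means more ATP so stronger rescue from cytokine killing; wells of about 40 µL received 100 nL stock; the first replicate is given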
B2AR ag: agonists of human beta-2 adrenergic receptor inducing internalization; Am2.2-beta2AR cells, FAP receptor internalization, flow cytometry; reference of the scale not given here; 340,000 tested, 0.43% active; response, % (no concentration beside the values); P07550; AID 504454;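 active = response above a set limit, near 3 SD of response in nonfluorescent compounds, cut at about 42% in these data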;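 also: stock transfer was 100 nL into about 11 µL; a reference agonist was the positive control; negative values mostly stem from fluorescent compounds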
Target sequence (P07550 whole entry, looked up): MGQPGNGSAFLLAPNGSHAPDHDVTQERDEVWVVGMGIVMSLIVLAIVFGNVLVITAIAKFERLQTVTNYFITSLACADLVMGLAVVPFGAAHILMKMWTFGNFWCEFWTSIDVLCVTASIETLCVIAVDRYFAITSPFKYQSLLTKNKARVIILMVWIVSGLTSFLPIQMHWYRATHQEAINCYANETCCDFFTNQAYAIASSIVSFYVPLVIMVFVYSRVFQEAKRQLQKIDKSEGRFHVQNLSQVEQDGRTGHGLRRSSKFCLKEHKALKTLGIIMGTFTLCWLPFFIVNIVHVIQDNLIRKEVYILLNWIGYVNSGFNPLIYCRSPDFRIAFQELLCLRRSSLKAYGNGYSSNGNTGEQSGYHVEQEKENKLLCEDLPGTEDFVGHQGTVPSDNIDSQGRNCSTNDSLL
RanGTP-Imp inh: disruptors of Ran-importin-beta complex formation – biochemical, FRET, CFP-Ran, YFP-importin-beta, homogeneous, primary screen | 300,000 tested, 1.1% active | AID 2216 | cell-free CFP-Ran/YFP-importin-beta FRET ratio | inhibition, % (concentration not given with the values);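 active = most replicates above 15%; inconclusive = exactly half above 15%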;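 also: 0% = DMSO wells and 100% = Ran loaded with GDP instead of GTP; wells of about 40 µL received 100 nL stock; the first replicate is given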
Bfl-1 A1 inh: inhibitors of the anti-apoptotic protein A1, read as caspase activation | 330,000 tested, 0.066% active | AID 2462 | MEF A1-2A-BIM cells, Caspase-Glo 3/7 luminescence, 3 h; percent of clofoctol response, vehicle zero | caspase activation, % (no concentration beside the values);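 active = over half of replicate activation scores above 10%, or exactly half above 10 with the replicate mean above 10; inconclusive = replicate mean below 10 yet half the replicates above 10; inactive = over half of replicates below 10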;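 also: wells of about 30 µL received 50 nL stock; many hits fall short of the cut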
T cruzi inh: blocks replication of Trypanosoma cruzi. T. cruzi beta-gal in NIH3T3, luminescence, 90 h. inhibition, % (concentration not given with the values). 300,000 tested, 1.4% active;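 active = mean inhibition across valid replicates above about 55%, limit read from the data; inconclusive = mean below that limit but half or more replicates reach it; inactive = mean below it, under half of replicates reach it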;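 also: signal also drops with host cell toxicity which is not excluded here; 0% = plate median of DMSO wells and 100% = zero luminescence signal; higher percent means less beta-gal luminescence so fewer parasites; stock transfer was 50 nL into about 50 µL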
Calb FLC: C. albicans growth modulation with fluconazole; 300,000 tested, 0.57% active; growth inhibition, % (concentration not given with the values); AID 1979; C. albicans CaCi-2 (fluconazole-resistant clinical isolate) + fluconazole, Alamar Blue growth, 48 h;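 active = most replicates above 75%; inconclusive = exactly half above 75%; inactive = most below 75%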;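 also: all wells also contain fluconazole at 8 µg/ml as a sub-toxic cotreatment; 0% = median of DMSO wells and 100% = median of geldanamycin control wells; wells of about 8 µL received 7.5 nL stock; the first replicate is given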
Numbers without * were called inactive; ? = inconclusive; . = not tested or not shown.

SMILES	LANA-H2A inh	UCH37 inh	Beta cell apopt	B2AR ag	RanGTP-Imp inh	Bfl-1 A1 inh	T cruzi inh	Calb FLC
COc1ccc(S(=O)(=O)N2CCCC(C(=O)Nc3ccc(OC)c(OC)c3)C2)cc1 (stereo not given)	-1.8	4.5	1	3	-0.8	0.6	-5	24
CCOc1ccc(-n2c(SCc3ccc(C(=O)OC)o3)nc3c(c2=O)SCC3)cc1	-3.1	4.6	4	-11	.	0.4	.	.
CCOc1ccc(S(=O)(=O)NCCC(=O)N(C)Cc2cccs2)cc1	3.8	3.6	-4	-4	.	-0.5	.	.
CCCCCCCNC(=O)CN1N=C(c2ccc(C)cc2)CCC1=O	-1.8	-0.2	3	-1	-2.8	1.6	-8	-6
CCOC(=O)c1nn(-c2ccccc2F)c(-c2ccccc2)c1C(=O)c1ccccc1	3.0	-4.0	6	9	1.6	-0.4	11	28
CCOC(=O)Nc1sc(C)c(C)c1C(=O)OCC	4.5	2.5	-8	1	1.6	-0.5	3	-35
CC(=O)C(Cc1ccccc1)NC(=O)CN1c2cccc3cccc(c23)S1(=O)=O (stereo not given)	-2.8	-74	2	21	.	0.3	.	.
C[C@@H]1CC2[C@@H]3CC[C@H]4CC(=O)CC[C@]4(C)C3=CC[C@]2(C)[C@@]1(O)C(=O)CO (stereo not given in full)	-5.1	3.8	4	5	-1.5	-0.4	-1	2
CCN(CC)c1ccc(NC(=O)c2[nH]c(C)c(C(C)=O)c2C)c(C)c1	2.2	0.9	0	9	14	0.2	5	5
CCN(Cc1ccccc1)C(=O)c1ccc(Cl)cc1[N+](=O)[O-]	9.2	2.9	1	-1	-2.7	-0.6	-1	0
O=C(Oc1ccc(=O)n(-c2ccccc2)n1)c1ccc(Cl)cc1	-0.8	5.5	-5	-10	4.2	-0.2	-24	-3
NC(=O)COc1ccc(NC(=O)CC23CC4CC(CC(C4)C2)C3)cc1	-0.8	-0.3	-7	-1	4.1	1.9	-14	-12
CC(=O)C1C(c2ccc([N+](=O)[O-])cc2)c2c(noc2C)CC1(C)O (stereo not given)	-6.5	4.4	-2	-2	-1.2	-0.2	8	-23
COc1ccc(CCn2c(C)cc(C(=O)COC(=O)c3cnc(C)cn3)c2C)cc1	3.7	5.7	-2	6	2.1	2.1	-1	-16
COc1ccc(N=C2NN=C(c3c(C)[nH]c4ccccc34)CS2)cc1	-3.5	2.6	24	-1	?	0.7	11	0
CCN1C(=O)[C@@H]2[C@@H](c3ccc(-c4ccc5c(c4)OCO5)c(OC)c3)N3CCC[C@@]3(C(=O)OC)[C@@H]2C1=O	-3.0	-0.4	2	-1	.	-0.2	.	.
CCc1noc(C)c1C(=O)N(C)CC(=O)Nc1ccccc1Br	0.9	1.7	-1	-9	.	0.0	-1	2
C/C(=N/N=C(/C)c1cccs1)c1cccs1	-7.8	.	-6	-6	7.8	-2.4	-4	-20
O=C(N/N=C/c1c(Cl)[nH]c2ccccc12)c1sc2ccccc2c1Cl	.	.	6	-6	2.7	-0.9	18	15
Cc1ccc(NC(=O)CCCc2ccccc2)c([N+](=O)[O-])c1	1.7	0.5	-9	-5	-0.1	0.5	-3	-5
CCc1ccc2c(c1)C(O)(CC(=O)c1cccs1)C(=O)N2 (stereo not given)	3.3	2.5	.	-6	10	0.2	-15	-43
O=C1NC(c2ccccc2)Nc2c1sc(=S)n2-c1ccccc1 (stereo not given)	-1.5	8.6	11	-3	-3.7	0.4	-1	0
O=C(/C=C/c1ccccc1)NCCc1ccccc1	-4.8	1.8	.	-5	0.0	0.1	-8	-5
O=C(OCn1nnc2ccccc2c1=O)C1CCN(S(=O)(=O)c2cccs2)CC1	3.8	-0.1	-2	4	-2.3	-0.6	1	43
Fc1ccc(N/N=C/C=C/c2ccccc2)c(F)c1	-0.9	.	-7	2	20*	0.9	11	-40
SMILES	LANA-H2A inh	UCH37 inh	Beta cell apopt	B2AR ag	RanGTP-Imp inh	Bfl-1 A1 inh	T cruzi inh	Calb FLC
CCN1C(=NCCc2ccc(Br)cc2)N[C@@H](c2ccccc2)[C@H](C(=O)OC)[C@H]1C	4.2	2.2	1	33	.	2.0	.	.
Cc1ccc(C(=O)Nc2nnc(-c3ccncc3)o2)cc1	1.6	4.2	-4	-4	1.9	-0.3	-16	21
Cc1cc(C)cc(OCC(=O)OCc2nnc(-c3ccccc3)o2)c1	8.5	-1.3	-4	4	-4.8	-0.1	0	3
O=C1c2ccccc2C(=O)c2c1ncn2-c1ccccc1	0.3	2.4	31	-16	2.9	-0.4	-12	12
CC(C)CN(C(=O)CCNC(=O)c1ccc(Cl)cc1)C1CCS(=O)(=O)C1 (stereo not given)	1.2	-0.3	7	9	.	-0.1	.	.
COc1oc(-c2ccc(Cl)cc2)nc1C(F)(F)F	0.9	3.4	-3	3	-4.4	-0.6	-32	-9
COc1cc(C(=O)NCCC(=O)NC(C)CCc2ccccc2)cc(OC)c1OC (stereo not given)	0.5	2.7	-5	-2	-3.5	0.9	-9	-3
COc1cccc(-c2nc(NCCN3CCOCC3)c3ccccc3n2)c1O	0.7	9.6	.	12	-2.2	-0.1	13	?
CCOc1ccc(C(=O)NCCC(=O)NCCCC(=O)O)cc1	-1.9	3.2	1	6	7.6	0.5	1	1
Cc1ccc(-c2csc(NC(=O)c3cc([N+](=O)[O-])ccc3N3CCOCC3)n2)cc1	0.3	.	8	-9	3.2	-0.4	9	4
COc1ccc(C(=O)N/C(=C\c2ccc(Cl)cc2)C(=O)NCC2CCCO2)cc1 (stereo not given)	1.4	2.7	-2	15	1.6	-0.7	-1	-19
CCC(C)(C)c1nnc(NC(=O)C2CCN(C(=O)c3ccco3)CC2)s1	-4.7	0.8	-9	-11	2.3	-0.4	-12	-30
O=C(Nc1ccccc1C(=O)O)c1cc(S(=O)(=O)N2CCCCC2)cs1	3.1	3.4	.	-4	?	0.4	-20	-1
CN(C)c1ccc(-c2nn3c(C4CCCCC4)nnc3s2)cc1	-8.0	-120	-6	-13	1.8	0.2	9	-28
CN1C(=O)CSc2ccc(NC(=O)NCc3ccccc3)cc21	-5.9	2.0	2	0	6.9	-0.2	-1	1
C=CCn1c(SCC(=O)Nc2ccc(C(=O)O)cc2)nc2scc(-c3ccccc3)c2c1=O	-0.2	3.3	-3	5	.	-0.1	.	.
CC(C)Nc1nnc(SCC(=O)Nc2sccc2C#N)s1	2.0	3.1	-2	-1	.	-0.1	.	.
CCCCNC(=O)Cn1cnc2sc(C)c(S(=O)(=O)N3CCN(c4ccccc4OC)CC3)c2c1=O	2.1	0.6	1	5	-0.6	-0.2	4	-3
COc1ccc(S(=O)(=O)N2CCN(C(=O)c3ccc(C)o3)CC2)cc1	0.1	2.5	-5	2	4.3	-0.3	-4	-5
CCOc1ccccc1NC(=O)c1ccc([N+](=O)[O-])cc1	-0.6	6.0	-1	.	-1.1	-1.6	3	4
C=CCNC(=O)C(=O)Nc1cc2c3c(c1)CCC(=O)N3CCC2	-3.3	3.8	3	-3	0.8	0.1	-9	-12
CCOC(=O)Cc1csc(NC(=O)C2CCCCC2C(=O)O)n1 (stereo not given)	1.3	2.1	0	3	4.6	-0.2	4	-1
COc1ccc(S(=O)(=O)N/N=C/c2ccc(OCCN3CCOCC3)c(OC)c2)cc1	2.5	.	.	5	0.7	0.6	9	2
Cc1cccc(C(=O)NC2CC3CCCC(C2)N3S(=O)(=O)c2ccccc2)c1 (stereo not given)	-2.5	3.3	0	4	6.5	-0.1	11	6
O=c1c2cnn(-c3ccccc3)c2ncn1Cc1ccccn1	3.9	5.9	-6	-2	0.0	-1.7	-12	?
SMILES	LANA-H2A inh	UCH37 inh	Beta cell apopt	B2AR ag	RanGTP-Imp inh	Bfl-1 A1 inh	T cruzi inh	Calb FLC
O=C(OCc1cccc(C(F)(F)F)c1)c1cc(S(=O)(=O)N2CCOCC2)ccc1F	4.0	2.7	-3	56*	2.9	0.5	-9	7
CN(Cc1ccccc1)S(=O)(=O)c1ccc(NC(=O)C2CCCO2)cc1 (stereo not given)	-6.4	3.0	-3	-7	-0.9	-1.7	-5	-19
CC1=C(C(=O)OCc2ccccc2)C(c2cccc(Br)c2)NC(=O)N1 (stereo not given)	-0.2	0.6	0	-7	0.2	1.0	-1	-3
CC(=O)c1ccc(NC(=S)NCCCn2ccnc2)cc1	3.0	2.8	4	-3	3.3	0.6	-9	12
O=S(=O)(NCc1cccnc1)c1ccc(Cl)c2ccccc12	1.1	5.3	-5	-2	3.0	0.0	-11	27
CCOC(=O)C1=C(CN2CCOCC2)NC(=O)NC1c1cccc([N+](=O)[O-])c1 (stereo not given)	8.6	0.5	-8	1	-2.2	-0.2	8	9
Cc1ccc(C(=O)O/N=C(\N)c2ccc(C(F)(F)F)cn2)cc1	-0.2	.	.	-8	?	-0.2	4	-5
O=C(NC1=NCCS1)c1ccc(Cl)cc1	4.5	5.4	-7	-9	1.0	-2.1	-4	-19
COc1ccc(CCC(=O)NCCNC(=O)CCc2ccc(OC)cc2)cc1	0.2	0.1	-7	-1	-3.1	0.3	2	3
CCOc1ncccc1C(=O)OCc1ccc(Cl)cc1	0.6	2.4	-2	-2	-1.5	1.2	-19	6
COc1cc(CNc2ccc3[nH]c(=O)[nH]c3c2)ccc1OCc1ccccc1C	-0.7	-0.5	1	11	4.7	-1.0	18	2
COc1cccc(C2C(C#N)=C(N)N(N(C)C)C3=C2C(=O)CCC3)c1 (stereo not given)	2.4	4.6	-2	2	-5.2	-0.2	0	2
Cc1onc(-c2ccccc2)c1NC(=O)Nc1ccc(OC(F)F)cc1	2.4	1.5	1	6	-1.0	2.0	12	-7
Cc1[nH]c2ccccc2c1SCCNC(=O)c1ccc(Br)o1	-3.9	4.4	.	10	-4.3	0.4	22	17
COCCN=C1Sc2nc3ccc(C)cc3cc2CN1Cc1ccco1	0.6	4.3	-5	-7	4.9	-0.3	-8	-2
CCOC(=O)Cc1nnc(NC(=O)CSc2ncc(-c3ccccc3)nn2)s1	-0.5	8.4	-4	-5	-3.3	0.1	-11	-9
O=C(NC1CCSc2ccccc21)c1ccccc1F (stereo not given)	0.7	1.8	-1	7	1.4	0.8	5	-1
Cc1cc(-c2n[nH]c(=S)n2/N=C/c2ccco2)n[nH]1	4.6	.	-3	7	-3.2	-0.7	14	-18
COc1ccc(-n2c(COc3ccc(C)cc3)nnc2SCc2ccc(C#N)cc2)cc1	-3.5	-1.2	-5	-12	8.3	0.0	35	9
Cc1cc(C)c2nc(N3CCN(C)CC3)c(C#N)cc2c1	-3.2	-80	-6	0	5.5	1.0	5	5
CCC(CC)c1nnc(NC(=O)c2cc(-c3ccccc3)nc3ccccc23)s1	1.5	-0.3	-4	8	-0.2	-0.8	-18	1
Cc1cccc(NC(=O)CN2C(=O)C(C)Oc3ccccc32)n1 (stereo not given)	0.2	0.3	1	5	2.1	-0.3	-11	-20
S=c1[nH]nc(CCSCc2ccccc2)n1-c1ccccc1	3.6	4.8	-2	-2	1.8	-0.5	2	-4

Compound activity from PubChem BioAssay.
